Compound activity (PubChem BioAssay)
UCH37 DUB inh: human UCH37 deubiquitinating enzyme inhibition | inhibition, % (test concentration not listed) | Q9Y5K5 | purified proteasome/UCH37, Ub-AMC cleavage fluorescence | 0.33% of 330,000 active;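 active = mean of two replicates above 20%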;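 also: 0% = compound-free wells with enzyme and 100% = wells lacking proteasome; stock transfer was 100 nL into about 20 µL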
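Assay system: Proteasome-bound UCH37. Buffer or medium: pH 7.4 Tris-HCl (50 mM) with ovalbumin, ATP-MgCl2, DTT. Incubation: 30 min preincubation with enzyme, 25 min cleavage at room temperature. Measured by: fluorescence, ex 355 nm, em 460 nm. Read-out basis: percent inhibition. Control set: wells without proteasome as full block, compound-free enzyme plus substrate as uninhibited.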
Bfl-1 A1 inh: inhibitors of the anti-apoptotic protein A1, read as caspase activation. MEF A1-2A-BIM cells, Caspase-Glo 3/7 luminescence, 3 h; percent of clofoctol response, vehicle zero. 0.066% of 330,000 active. caspase activation, % (test concentration not listed);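 active = over half of replicate activation scores above 10%, or exactly half above 10 with the replicate mean above 10; inconclusive = replicate mean below 10 yet half the replicates above 10; inactive = over half of replicates below 10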;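 also: wells of about 30 µL received 50 nL stock; many hits fall short of the cut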
RanGTP-Imp inh: inhibitors of RanGTP-importin-beta interaction, primary screen, biochemical, FRET, CFP-Ran, YFP-importin-beta, homogeneous; cell-free CFP-Ran/YFP-importin-beta FRET ratio; inhibition, % (no concentration beside the values); 1.1% of 300,000 active; AID 2216;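 active = most replicates above 15%; inconclusive = exactly half above 15%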;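 also: 0% = DMSO wells and 100% = Ran loaded with GDP instead of GTP; wells of about 40 µL received 100 nL stock; the first replicate is given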
B2AR ag: agonists of human beta-2 adrenergic receptor inducing internalization; Am2.2-beta2AR cells, FAP receptor internalization, flow cytometry; reference of the scale not given here; response, % (no concentration beside the values); 0.43% of 340,000 active; AID 504454;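 active = response above a set limit, near 3 SD of response in nonfluorescent compounds, cut at about 42% in these data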;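 also: stock transfer was 100 nL into about 11 µL; a reference agonist was the positive control; negative values mostly stem from fluorescent compounds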
LANA-H2B inh: blocks KSHV LANA binding to histone H2A/H2B | cell-free LANA-H2A/H2B peptide, fluorescence polarization | Q9QR71 | inhibition, % (no concentration beside the values) | 0.6% of 320,000 active; in the data active = inhibition mostly above about 10%, no sharp cut-off; inactive = mostly below about 6.7%;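 also: stock transfer was 7.5 nL into about 10 µL; 0% = median of vehicle wells and 100% = median of positive control wells; one replicate is shown; the record names a cut of 25% in any replicate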
Target sequence (Q9QR71 whole entry, looked up): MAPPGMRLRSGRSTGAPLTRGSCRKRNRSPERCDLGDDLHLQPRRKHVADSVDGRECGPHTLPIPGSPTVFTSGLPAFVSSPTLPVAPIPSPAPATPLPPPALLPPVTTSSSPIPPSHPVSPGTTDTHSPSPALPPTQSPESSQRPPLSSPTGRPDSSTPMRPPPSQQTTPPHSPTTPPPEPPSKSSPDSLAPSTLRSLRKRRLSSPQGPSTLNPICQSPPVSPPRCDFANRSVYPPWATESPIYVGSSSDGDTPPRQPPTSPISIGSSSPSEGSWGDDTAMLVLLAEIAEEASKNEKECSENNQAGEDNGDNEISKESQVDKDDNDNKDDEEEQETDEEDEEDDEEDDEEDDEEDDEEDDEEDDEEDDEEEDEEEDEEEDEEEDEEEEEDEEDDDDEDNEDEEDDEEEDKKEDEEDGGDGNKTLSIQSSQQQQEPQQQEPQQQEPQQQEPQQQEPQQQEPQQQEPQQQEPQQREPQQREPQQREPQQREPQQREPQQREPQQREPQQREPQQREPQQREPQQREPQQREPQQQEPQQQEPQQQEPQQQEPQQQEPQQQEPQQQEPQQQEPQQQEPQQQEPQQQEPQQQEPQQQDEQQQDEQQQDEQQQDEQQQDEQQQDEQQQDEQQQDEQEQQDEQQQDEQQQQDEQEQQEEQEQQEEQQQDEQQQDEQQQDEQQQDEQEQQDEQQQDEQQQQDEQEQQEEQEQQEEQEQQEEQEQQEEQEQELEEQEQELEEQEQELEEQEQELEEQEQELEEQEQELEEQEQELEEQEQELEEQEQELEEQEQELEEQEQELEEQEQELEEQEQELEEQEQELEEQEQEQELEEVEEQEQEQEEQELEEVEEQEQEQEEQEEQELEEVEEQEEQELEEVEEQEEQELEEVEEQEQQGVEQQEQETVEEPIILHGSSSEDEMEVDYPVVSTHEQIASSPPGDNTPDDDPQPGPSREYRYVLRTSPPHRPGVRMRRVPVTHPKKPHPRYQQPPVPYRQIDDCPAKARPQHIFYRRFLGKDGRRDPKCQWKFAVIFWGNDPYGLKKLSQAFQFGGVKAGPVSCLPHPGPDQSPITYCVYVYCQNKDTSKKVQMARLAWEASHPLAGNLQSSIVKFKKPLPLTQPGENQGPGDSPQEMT
Calb FLC: C. albicans growth modulation with fluconazole | 0.57% of 300,000 active | growth inhibition, % (concentration not given with the values) | C. albicans CaCi-2 (fluconazole-resistant clinical isolate) + fluconazole, Alamar Blue growth, 48 h | AID 1979;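 active = most replicates above 75%; inconclusive = exactly half above 75%; inactive = most below 75%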;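 also: all wells also contain fluconazole at 8 µg/ml as a sub-toxic cotreatment; 0% = median of DMSO wells and 100% = median of geldanamycin control wells; wells of about 8 µL received 7.5 nL stock; the first replicate is given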
Beta cell apopt: blocks beta cell apoptosis. protection from apoptosis, % (no concentration beside the values). 0.8% of 300,000 active. INS-1E cytokine-induced death, ATP luminescence, 48 h; percent of positive-control rescue, neutral wells zero. AID 435005;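 active = all replicates at 75% or more, or half of them and the mean; inconclusive = half reach 75% but not the mean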;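 also: 0% = cytokine-treated negative control wells and 100% = positive control rescue; higher means more ATP so stronger rescue from cytokine killing; wells of about 40 µL received 100 nL stock; the first replicate is given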
T cruzi repl: T. cruzi replication inhibition | T. cruzi beta-gal in NIH3T3, luminescence, 90 h | inhibition, % (test concentration not listed) | 1.4% of 300,000 active | AID 1885;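 active = mean inhibition across valid replicates above about 55%, limit read from the data; inconclusive = mean below that limit but half or more replicates reach it; inactive = mean below it, under half of replicates reach it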;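 also: signal also drops with host cell toxicity which is not excluded here; 0% = plate median of DMSO wells and 100% = zero luminescence signal; higher percent means less beta-gal luminescence so fewer parasites; stock transfer was 50 nL into about 50 µL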
Numbers without * were called inactive; ? = inconclusive; nt = no result given; & = joins results of further samples. Hits appear at their usual frequency, and some 4.3% of all compounds hit somewhere here.

Sample of the layout (ten entries):
SMILES	UCH37 DUB inh	Bfl-1 A1 inh	RanGTP-Imp inh	B2AR ag	LANA-H2B inh	Calb FLC	Beta cell apopt	T cruzi repl
CCC(=O)c1ccccc1OCCCN1CCC(Cc2ccccc2)CC1	5.5	0.0	1.6	0	-4.0	-4	5	46
O=C(O)c1c(Cl)c(Cl)c(Cl)c(Cl)c1C(=O)N1CCCC1	4.8	0.4	0.9	2	-1.4	-19	-1	0
COc1ccc(C2=NOC(C(=O)NCc3ccc(F)cc3)C2)cc1 (stereo not given)	1.3	-0.7	7.7	20	-1.5	0	5	-38
C#Cc1cccc(C(=O)NC2CCCN(C3Cc4ccccc4C3)C2)c1 (stereo not given)	1.6	-0.5	2.9	-2	4.3	4	2	41
O=C(c1ccccc1)C(O)(Cc1ccccc1)c1ccccc1 (stereo not given)	5.3	-0.5	-2.2	2	-0.3	0	nt	-4
COc1ccc(NC(=O)Nc2ccc(Br)c(C)c2)cc1	2.2	-1.4	-3.4	-2	2.5	11	-5	nt
COc1cc(C(=O)N2CCC(NC(=O)C(Cc3ccc(C(C)C)cc3)NC(C)=O)CC2)cc(OC)c1OC (stereo not given)	3.8	0.1	4.2	-2	1.0	2	1	2
COc1ccc(C2Nc3ccccc3C(=O)N2NS(=O)(=O)c2ccccc2)c(OC)c1 (stereo not given)	-134	0.0	8.9	12	-2.6	8	-2	-21
Cc1ccc(S(=O)(=O)CC(=O)c2ccc(C)c([N+](=O)[O-])c2)cc1	0.9	1.1	-0.5	12	-0.9	2	-7	4
COc1ccccc1CNC(=O)C1CCC(=O)N(CCCN2CCCC2=O)C1 (stereo not given)	0.2	-0.3	?	4	-5.9	1	-8	0

Main list, previewed entries included:
SMILES	UCH37 DUB inh	Bfl-1 A1 inh	RanGTP-Imp inh	B2AR ag	LANA-H2B inh	Calb FLC	Beta cell apopt	T cruzi repl
CCC(=O)c1ccccc1OCCCN1CCC(Cc2ccccc2)CC1	5.5	0.0	1.6	0	-4.0	-4	5	46
O=C(O)c1c(Cl)c(Cl)c(Cl)c(Cl)c1C(=O)N1CCCC1	4.8	0.4	0.9	2	-1.4	-19	-1	0
COc1ccc(C2=NOC(C(=O)NCc3ccc(F)cc3)C2)cc1 (stereo not given)	1.3	-0.7	7.7	20	-1.5	0	5	-38
C#Cc1cccc(C(=O)NC2CCCN(C3Cc4ccccc4C3)C2)c1 (stereo not given)	1.6	-0.5	2.9	-2	4.3	4	2	41
O=C(c1ccccc1)C(O)(Cc1ccccc1)c1ccccc1 (stereo not given)	5.3	-0.5	-2.2	2	-0.3	0	nt	-4
COc1ccc(NC(=O)Nc2ccc(Br)c(C)c2)cc1	2.2	-1.4	-3.4	-2	2.5	11	-5	nt
COc1cc(C(=O)N2CCC(NC(=O)C(Cc3ccc(C(C)C)cc3)NC(C)=O)CC2)cc(OC)c1OC (stereo not given)	3.8	0.1	4.2	-2	1.0	2	1	2
COc1ccc(C2Nc3ccccc3C(=O)N2NS(=O)(=O)c2ccccc2)c(OC)c1 (stereo not given)	-134	0.0	8.9	12	-2.6	8	-2	-21
Cc1ccc(S(=O)(=O)CC(=O)c2ccc(C)c([N+](=O)[O-])c2)cc1	0.9	1.1	-0.5	12	-0.9	2	-7	4
COc1ccccc1CNC(=O)C1CCC(=O)N(CCCN2CCCC2=O)C1 (stereo not given)	0.2	-0.3	?	4	-5.9	1	-8	0
COc1ccc(S(=O)(=O)NCc2ccco2)cc1C(=O)N1CCCCC1	-1.2	0.4	0.9	-2	-2.1	-5	-8	2
Cc1ccc(S(=O)(=O)N2CCOCC2)cc1NC(=O)COC(=O)Cc1ccccc1	2.7	-0.7	nt	-7	3.9	nt	-3	nt
CC(=O)c1cccc(NS(=O)(=O)c2ccc(C(=O)Nc3ccccc3)cc2)c1	3.4	0.8	-1.0	3	0.3	-11	nt	-27
Cc1cc(C)c2cc(CN(Cc3cccnc3)C(=O)c3ccc(F)cc3)c(Cl)nc2c1	-0.6	-0.2	-0.8	-2	-0.2	-3	23	59*
Cc1nn(CC(=O)Nc2ccc(N(C)C)cc2)c(C)c1[N+](=O)[O-]	1.7	1.5	-2.0	6	4.0	-2	-4	8
CC(=O)NC12CC3CC(C1)CC(C(=O)OCC(=O)Nc1ncc(Cl)cc1Cl)(C3)C2	2.2	-0.6	2.4	-1	-0.2	-2	nt	7
N#CC(c1ccc(Cl)cc1)c1cccc(Cl)n1 (stereo not given)	1.9	-1.1	?	-4	-6.8	-5	-8	-7
O=C(CSc1cccc2cccnc12)N1CCCC1	-104	-0.8	-1.7	14	1.9	2	54	61*
CC(=O)N1CC(C)Sc2ccc(S(=O)(=O)NC3CCCCC3C)cc21 (stereo not given)	5.1	1.2	-0.5	-7	0.1	0	-4	6
O=C(c1ccccc1)N1N=C(c2ccccc2)CC1c1cccs1 (stereo not given)	-25	1.2	-2.9	1	4.2	6	5	9
Cc1cccc(NC(=O)CN2C(=O)COc3ccc(Cl)cc32)c1	4.5	-0.6	-1.6	3	-10	-9	-8	11
Cn1ccnc1SCC(=O)Nc1cc(F)ccc1F	1.4	0.1	-2.8	2	-6.8	-1	0	-3
COCCN(C(=O)CSc1nnc2cc(C)c3ccccc3n12)c1c(N)n(Cc2ccccc2)c(=O)[nH]c1=O	0.7	1.1	1.2	21	-5.2	-17	7	1
CSc1cccc(NC(C)C(=O)NCc2ccccc2)c1 (stereo not given)	7.1	0.2	-2.0	0	2.1	13	-3	-6
Cn1cccc1Cc1nnc(SCC(=O)NCc2ccccc2Cl)n1-c1ccc(F)cc1	2.7	-0.8	-1.2	-2	-3.9	0	-7	-4
Cc1ccc(S(=O)(=O)N2CCC(C(=O)NN3CCCCC3)CC2)cc1	-0.7	-0.4	nt	-3	nt	nt	-2	nt
S=C(c1ccc(-c2ccccc2)cc1)N1CCOCC1	3.5	0.5	0.2	-4	2.1	-11	-8	9
Cc1ccccc1NS(=O)(=O)c1cc2c(cc1C)NC(=O)CO2	5.1	0.1	-0.8	-6	0.6	-1	0	6
CCOc1ccc2c(c1)c1nnc(SCC3CCCO3)nc1n2C (stereo not given)	4.2	-0.5	1.5	-3	-1.3	-9	10	34
COc1c(Cl)cc(-c2noc(C)c2C(=O)NCCc2ccc(C)cc2)cc1Cl	7.9	0.0	1.5	-1	0.1	-2	nt	14
COCCNC(=S)N(CCO)Cc1cc2cc3c(cc2[nH]c1=O)OCO3	-139	0.3	-9.7	10	4.9	-5	1	0
COc1ccc(/C(O)=C2/C(=O)C(=O)N(c3ccccn3)C2c2ccc(OC)cc2)cc1 (stereo not given)	9.9	nt	1.1	-3	nt	5	nt	-7
Cc1cc(C)cc(N(CC(=O)NCc2ccco2)C(=O)c2snc(C(N)=O)c2N)c1	-14	1.6	-4.8	-3	-8.2	0	4	12
C/C(CCc1ccccc1)=N\NC(=O)c1ccc(CN2CCOCC2)cc1	nt	0.8	2.8	-12	0.7	-45	-4	-26
CCOC(=O)c1c(C)[nH]c(N=Nc2cccc(OC)c2)c1C	2.4	-2.3	2.7	6	0.1	?	nt	0
CCOC(=O)C1CCN(S(=O)(=O)c2c(C)n(C)c(=O)n(C)c2=O)CC1	-0.4	0.2	4.8	-11	7.3	2	-2	-4
NC(=O)c1nsc(C(=O)N(Cc2ccco2)C(C(=O)NCc2ccccc2)c2ccc(O)cc2)c1N (stereo not given)	-25	0.1	4.2	9	-2.2	2	1	5
O=C(N/N=C/c1cccnc1)c1ccco1	nt	-0.1	-0.7	-2	1.5	2	3	-22
CCc1ccc(NC(=O)CCC(=O)c2ccccc2)cc1	5.0	-1.6	1.1	-8	-3.8	-2	-2	-11
CC(C)[C@H](NC(=O)c1ccccc1Cl)C(=O)OCC(=O)NCc1ccc2c(c1)OCO2	nt	-0.8	nt	5	-3.2	nt	-3	nt
COc1ccc(NC(=O)c2ccc3snnc3c2)cc1	-3.9	-3.2	96*	-5	-30	0	nt	-9
Cc1ccc(Cn2c(S(=O)(=O)O)nc3ccccc32)cc1	-1.4	-0.3	3.9	3	6.8	0	-22	-20
Cc1ccc(OCC(=O)Nc2c3c(nn2C(C)(C)C)CS(=O)(=O)C3)cc1	2.6	1.4	?	1	-0.2	1	2	2
Cc1c(N(C(=O)c2ccccn2)C2(C(=O)NC3CCCC3)CCCCC2)c(=O)n(-c2ccccc2)n1C	3.3	0.2	8.0	0	-0.5	22	-7	-8
CC(OC(=O)CC1CC2CCC1C2)C(=O)Nc1cccc(S(=O)(=O)N2CCOCC2)c1 (stereo not given)	1.0	0.6	0.3	-8	-0.5	-8	1	5
CN(C)CCN(Cc1ccc(Cl)cc1)c1ccccn1	nt	-0.6	3.3	8	3.8&-3.7	-27	-1	6
Cc1ccc(N2CC(C(=O)Nc3ccc(S(=O)(=O)Nc4ncccn4)cc3)CC2=O)cc1C (stereo not given)	1.1	-0.4	0.4	0	-2.6	-14	-3	-11
COc1ccc(CC(=O)NC(=S)Nc2cccc(CO)c2)cc1	5.1	0.1	1.1	-14	4.7	-6	-1	-8
NC(=O)CC[C@@H]1NC(=O)[C@H](CO)NC(=O)c2cc([N+](=O)[O-])cc(I)c2NCCCC[C@@H](C(N)=O)NC(=O)[C@H](Cc2ccc(O)cc2)NC1=O	1.8	0.0	-7.2	nt	4.1	-1	4	-2
O=C(CCc1nc(-c2ccccc2F)no1)NCCN1CCc2ccccc2C1	2.2	0.3	0.9	-9	-2.5	-5	nt	10
CC(C)(C)C1CCc2c(C(=O)NNC(=O)CCCC(=O)O)csc2C1 (stereo not given)	4.6	0.3	4.7	29	8.0	-6	-2	-6
COC(=O)c1nn(-c2ccc(OC)cc2)c(=O)c2c(N)sc(C)c12	3.3	0.6	0.0	-3	4.5	13	0	-6
COc1ccc(/C=N/NC(=O)c2cc(-c3ccccc3)nc3ccccc23)c(C(=O)O)c1OC	nt	-2.5	-3.9	-2	1.4	11	-2	-5
O=C1c2ccccc2C(=O)N1CC(O)CNc1ccc(Br)cc1 (stereo not given)	2.8	-0.8	5.6	-5	4.3	-4	-10	1
CCC(C)(C)NC(=O)C1CCCN(S(=O)(=O)c2ccc3c(c2)CC(C)N3C(=O)C2CC2)C1 (stereo not given)	-0.7	0.1	0.6	-4	-2.5	-4	-3	18
